NS1 function inh – inhibitors of influenza NS1 protein function. S. cerevisiae slowed by influenza A NS1, growth recovery by OD600. Potency, µM (titrated, usually from 46.1 µM), inactives show at the highest dose activity, positive = more growth. hit rate 0.4% among 270,000. AID 2326; active means well fitted rising curve with a large enough effect; inconclusive means small, poorly fitted or top-dose-only effect; inactive means no such curve, though single readings can be large or run the other way; note: nearly all actives have a fitted effect of over 50% in size
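Recovery from NS1-induced slow growth read by OD600 in budding yeast switched to galactose assay medium (pH 6.0, -URA) at 1:100 dilution. Compound 23 nl per well; the matching strain lacking NS1 serves as control.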
2A StopGo – lowers the luciferase signal of an FMDV 2A StopGo reporter. Potency, µM (top dose mostly 57.9 µM), inactives show at the top dose signal change, negative = less light. hit rate 1.2% among 410,000. AID 1159524. human cells with a luciferase reporter of 2A StopGo recoding; control for the full effect not named in the record; active = well fitted falling curve with a large enough effect; inconclusive = small, poorly fitted or top-dose-only effect; inactive = no such curve, though single readings can be large or run the other way; tested in HEK293T cells; note: % is set by controls: 0 for no effect and ±100 for the full control effect; nearly all actives have a fitted effect of over 45% in size; luciferase light after 4 h
RE007 growth inh – less growth of the S. pombe RE007 Vpr strain; AID 651644; hit rate 0.21% among 360,000; Potency, µM (doses to about 92.2 µM), without a hit: at the top dose activity change, negative = less growth; S. pombe RE007 Vpr strain, BacTiter-Glo ATP luminescence, 24 h; control for the full effect not named in the record; active = well fitted falling curve with a large enough effect; inconclusive = small, poorly fitted or top-dose-only effect; inactive = no such curve, though single readings can be large or run the other way;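 note: % is set by controls: 0 for no effect and ±100 for the full control effect; nearly all actives have a fitted effect of over 50% in size; the assay follows cell death caused by Vpr and the record does not say whether a fall means rescue or toxicity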
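Fission yeast strain RE007, carrying one chromosomally integrated HIV-1 vpr copy, was seeded at OD 0.01 in PMG+AL medium with 23 nL pinned compound. After 24 h at 30 °C and 99% humidity, viability was read by BacTiter-Glo luminescence.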
MARV entry inh – blocks Marburg virus binding to or entry into cells | Marburg virus pseudotyped entry inhibition, cell reporter; control for the full effect not named in the record; about a third of the inactives were read at about 46 µM | Potency, µM (highest dose often 37.8 µM), inactives show at the highest dose activity change, negative = inhibition, hits mostly inhibitors | hit rate 1.8% among 300,000 | AID 540276; active = well fitted inhibition curve with a large enough effect; inconclusive = small, poorly fitted or top-dose-only effect, or effect the other way; inactive = flat fitted curve, though single readings scatter; tested in HEK293 cells; about a fifth of its hits are not listed in these tables; note: % is set by controls: 0 for no effect and ±100 for the full control effect; luciferase read-out
Cruzain Triton – cruzain (T. cruzi) inhibition with detergent; P25779; purified cruzain, Z-FR-AMC fluorescence, 0.01% Triton; Potency, µM, without a hit: max response, negative = inhibition, most hits filed as inhibitors; hit rate 0.43% among 200,000;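 note: plate controls were neutral wells for no effect and buffer without enzyme for full effect; nearly all actives have a fitted effect of over 40% in size; top concentration of the series not given in the record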
Target sequence (P25779 123-467 limits assumed): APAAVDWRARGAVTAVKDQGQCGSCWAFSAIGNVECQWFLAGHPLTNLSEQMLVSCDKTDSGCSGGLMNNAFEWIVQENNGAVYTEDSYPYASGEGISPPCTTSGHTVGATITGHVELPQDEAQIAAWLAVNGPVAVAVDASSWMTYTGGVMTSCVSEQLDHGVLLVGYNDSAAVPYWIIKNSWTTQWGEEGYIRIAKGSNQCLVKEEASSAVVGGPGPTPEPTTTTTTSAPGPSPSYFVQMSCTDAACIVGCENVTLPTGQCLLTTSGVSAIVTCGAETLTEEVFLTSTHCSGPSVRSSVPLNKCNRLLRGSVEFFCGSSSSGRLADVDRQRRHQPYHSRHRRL
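15 min RT preincubation of 1.5 nM cruzain with compound, then 2 uM Z-FR-AMC added; kinetic AMC fluorescence, 60 s delta. Triton X-100 0.01%, pH 5.5.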
LASV entry inh – Lassa virus entry inhibition; Lassa virus pseudotype entry inhibition, cell reporter; control for the full effect not named in the record; Potency, µM (doses to about 37.9 µM), for the others: at the top dose activity change, negative = inhibition, hits mostly inhibitors; hit rate 1.2% among 300,000; active means well fitted inhibition curve with a large enough effect; inconclusive means small, poorly fitted or top-dose-only effect, or effect the other way; inactive means flat fitted curve, though single readings scatter; tested in HEK293 cells; note: % is set by controls: 0 for no effect and ±100 for the full control effect; nearly all actives have a fitted effect of over 50% in size; luciferase read-out
Cruzain inh noDet – blocks cruzain activity in detergent-free assay; hit rate 2.3% among 200,000; P25779; Potency, µM, without a hit: max response, negative = inhibition, most hits filed as inhibitors; AID 1476; purified cruzain, Z-FR-AMC fluorescence, no detergent;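 note: plate controls were enzyme without inhibitor for no effect and buffer without enzyme for full effect; nearly all actives have a fitted effect of over 40% in size; top concentration of the series not given in the record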
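Detergent-free condition (0.00005% Triton X-100) in acetate buffer pH 5.5 with DTT. 1.5 nM enzyme and compound were pre-mixed 15 min, then 2 uM Z-FR-AMC substrate added; reaction progress from fluorescence change between first and third reads (60 s).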
SARS PLpro yeast – blocks SARS-CoV papain-like protease in a yeast assay | S. cerevisiae expressing SARS-CoV PLpro, growth rescue; control for the full effect not named in the record | Potency, µM (doses to about 32.9 µM), inactives show at the top dose activity, positive = growth rescue | hit rate 0.19% among 330,000 | AID 485353; active means well fitted rising curve with a large enough effect; inconclusive means small, poorly fitted or top-dose-only effect; inactive means no such curve, though single readings can be large or run the other way; note: 0% is about no effect; nearly all actives have a fitted effect of over 55% in size; growth read by luminescence after 48 h
* hit, by the source's call; ? = inconclusive; / = not tested or not shown; & = joins results of further samples; [ ] = remark or other dose. Unless noted, calls come from the whole dose curve; as a rule, active = well fitted curve in the direction sought with a large enough effect; inconclusive = small, poorly fitted or top-dose-only effect, or another doubt; inactive = no such curve, though single readings can be large; an effect the other way counts as inactive or inconclusive. Potency is the fitted concentration of half-maximal effect.

Structure | NS1 function inh | 2A StopGo | RE007 growth inh | MARV entry inh | Cruzain Triton | LASV entry inh | Cruzain inh noDet | SARS PLpro yeast
O=C(COC(=O)C1CCC(=O)N1)Nc1ccc(Cl)cc1Cl (configuration not stated) | 0% | -11% | 2% | -14% | -2.1% | 2% | -1% | -8%
C=CCNC(=S)Nc1ccc2nc(C)oc2c1 | 1% | -13% | 14% | 10%[46.1 µM] | / | 20%[46.1 µM] | / | 0%
Cc1ccc(NC(=O)c2ccccn2)c(Br)c1 | / | 26% | -22% | ? | / | -22% | / | -2%
CCOC(=O)CN(C(=O)CNC(=O)c1ccco1)C(C(=O)NC1CCCC1)c1ccccc1OCC (configuration not stated) | -9% | 13% | -2% | -4% | 1.6% | 23% | 3% | -2%
COc1ccccc1NC(=S)NC(=O)Cc1ccc(Cl)cc1 | -4% | 8% | 3% | ? | / | 8%[46.1 µM] | / | 6%
Cc1ccc(C(=O)c2cn(CC(=O)Nc3ccc(C)cc3Cl)c3nc(C)ccc3c2=O)cc1 | / | -3% | / | / | -1.2% | 30%[46.1 µM] | -3% | /
COc1ccc(/C=N/NC(=O)c2cccc(NC(C)=O)c2)c(OC)c1 | / | -1% | 14% | -1%[46.1 µM] | / | -2% | / | 8%
O=C(NCCc1ccc(Cl)cc1)C1(c2cccs2)CCOCC1 | / | -16% | / | / | -0.6% | 16%[46.1 µM] | 8% | /
CCOC(=O)Cc1csc(NS(=O)(=O)c2cccc([N+](=O)[O-])c2)n1 | 9% | -15% | 5% | / | / | / | / | 4%
COc1cccc(NC(=O)CNC(=O)Cn2cnc3sc4c(c3c2=O)CCCC4)c1 | -5% | -3% | -18% | / | / | / | / | -6%
Cc1ccccc1N/N=C/c1ccc(C#N)cc1 | 0% | 20% | 15% | -8% | -11% | 9% | ? | -9%
Cc1ccc(NC(=O)NCCCN2CCCC2=O)cc1C | 1% | 0% | 8% | / | / | / | / | -3%
Cc1ccc(CNC(=O)CCC2CCCN(Cc3cccc4cccnc34)C2)o1 (configuration not stated) | 8% | -3% | 0% | 2%[46.1 µM] | / | 4% | / | 0%
O=C(CSc1nccn1C1CCCC1)Nc1cccc(F)c1 | / | 51%[activator] | / | / | 0.6% | 0%[46.1 µM] | -14% | /
Cc1ccccc1C(=O)Oc1ccc(Sc2ccc(O)cc2)cc1 | -99% | / | / | 2% | 3.6% | / | -10% | -18%
Cc1cc(O)c(C2(O)C(=O)Nc3cc(Br)ccc32)cc1C (configuration not stated) | -1% | -16% | 20% | ? | / | -4% | / | 1%
CC(=O)Nc1ccc(/C=N/OCC(=O)Nc2ccc(C)cc2)cc1 | 25% | 21% | 2% | 22% | 1.9% | ? | -1% | 8%
CCOCCCN1CC(C(=O)NCCc2ccc(C)cc2)CC1=O (configuration not stated) | -2% | -5% | -9% | -16% | 8.0% | -2% | -3% | -5%
O=C(C1CCCN(CCCc2ccccc2)C1)N1CCCCC1 (configuration not stated) | -6% | -17% | -9% | 4% | -1.9% | 1% | -8% | 4%
CCOC(=O)CSc1nc2cc(C(=O)N3CCCC3)ccc2c(=O)n1Cc1ccccc1 | -13% | 14% | 0% | -26% | 1.1% | -6% | ? | 3%
Cc1ccc(CN2C(=O)CCC2C(=O)NC(C)C)cc1 (configuration not stated) | 0% | -29% | 0% | 2% | 8.8% | -18% | -3% | 1%
COC(=O)c1cc(-c2ccc(OC)c(OC)c2)c2c(=O)[nH]c(=O)n(C)c2n1 | 14% | -7%&-5% | 6% | -17%[46.1 µM] | -2.5% | 6%[46.1 µM] | ? | 0%
Cc1ccc(C(=O)Nc2cccc(NC(=O)c3cccnc3)c2)cc1 | -1% | 8% | 0% | ? | / | 11% | / | 1%
C/C(=N/NC(=O)CSc1nc2ccccc2n1C)c1ccc(O)cc1 | 3% | -9% | 9% | 5%[46.1 µM] | / | ? | / | 0%
CCc1ccc(NC(=O)c2cc(S(=O)(=O)N3CCCC3)ccc2F)cc1 | / | -1%&-2% | 17% | / | -0.2% | -26%[46.1 µM] | -1% | /
CCC(C(=O)NCCCN1CC(C)CC(C)C1)n1ncn2c(cc3occc32)c1=O (configuration not stated) | -4% | -12% | -12% | / | / | / | / | 3%
COc1cc2[nH]c(=O)n(CCC(=O)N3CCN(Cc4ccccc4)CC3)c(=O)c2cc1OC | / | -24% | -13% | 24%[46.1 µM] | / | -11%[46.1 µM] | / | 2%
CCCc1ccc(C(=O)NNc2ccccc2F)cc1 | -55% | 55%[activator] | 30% | / | / | / | / | -2%
COc1ccccc1/C=C/C(=O)NCCC1=CCCCC1 | -9% | 0% | 16% | ? | / | 7.9µM* | / | -1%
Cc1c(Cl)cccc1NC(=O)C1CCN(c2nc3ccccc3[nH]2)CC1 | / | -10% | / | / | -0.2% | 15%[46.1 µM] | -5% | /
O=C(O)CCCNS(=O)(=O)c1ccc2c(c1)OCCCO2 | 12% | 0% | -4% | 5% | -0.3% | 8% | 5% | 18%
CCOC(=O)c1cnc(-n2nc(C)cc2C)nc1Oc1ccc(C#N)cc1 | 6% | -2% | -15% | 3%[46.1 µM] | / | 13%[46.1 µM] | / | -4%
Cc1cc(Nc2ccc(Cl)cc2)nc(N)n1 | 7% | 47%[activator] | 0% | 2% | -1.9% | -13% | -1% | 1%
COc1ccc(C(C)=O)cc1CSc1nc2ccccc2c(=O)n1-c1ccccc1C | ? | -28% | -4% | ? | -9.8% | ? | ? | -23%
Cc1cc(Nc2cccc(Br)c2)n2c(nc3ccccc32)c1C#N | / | ? | / | 12%[46.1 µM] | -0.1% | 16%[46.1 µM] | -12% | /
COc1cccc(N2C(=O)CC(Nc3ccc(N4CCOCC4)cc3)C2=O)c1 (configuration not stated) | 9% | / | -19% | 27% | -0.9% | 36% | -7% | -3%
COc1ccc(OC)c(C2=NOC(C(=O)NCc3cccnc3)C2)c1 (configuration not stated) | 0% | 6% | 2% | ? | / | -27% | / | 1%
O=C(CCn1cnc2ccccc2c1=O)Nc1cccc(Cl)c1 | -4% | 5% | 7% | 16% | -5.8% | -8% | -7% | -6%
O=C(Cc1ccccc1F)Nc1ccc(SC(F)F)cc1 | 8% | 47%[activator] | 1% | ? | -5.7% | ? | 3% | -4%
CCOC(=O)c1c(NC(=O)CSc2nnc(-c3c[nH]c4ccccc34)n2CCOC)sc2c1CCCCC2 | 24% | ? | -3% | ? | 1.0% | 23µM* | -9% | 0%
Cc1ccc2c(c1)sc1nc(=O)n(-c3ccc(Cl)cc3)c(=O)n12 | -3% | 8%&30% | -9% | -3%[46.1 µM] | -2.1%&-2.8% | 4%[46.1 µM] | 8%&1% | -9%
CC(C)(C)C(=O)/C=c1\[nH]c(=O)/c(=C\c2ccc(F)cc2)s1 | -5% | -24% | -22% | -18%[46.1 µM] | -10% | -9% | -2% | -25%
Cn1c(N)c(C(=O)COC(=O)c2ccc(Cl)nc2)c(=O)n(C)c1=O | / | -2% | 1% | 0%[46.1 µM] | / | ? | / | -3%
CCC(=O)N1CCc2cc(S(=O)(=O)NC(Cc3ccccc3)C(=O)NCc3ccc(C)cc3)ccc21 (configuration not stated) | / | 8% | / | 6%[46.1 µM] | -1.7% | 0%[46.1 µM] | -2% | /
CN(C)CCN1C(=O)NC(C)(c2ccc([N+](=O)[O-])cc2)C1=O (configuration not stated) | 4% | -3% | 1% | -4%[14.2 µM] | / | -3% | / | -3%
CCC1CCCCN1Cc1nc(Cc2ccccc2Cl)no1 (configuration not stated) | -5% | -18% | 2% | -13%[46.1 µM] | / | 0% | / | 0%
O=C(NCc1ccc(F)cc1)C1CCN(S(=O)(=O)N2CCCCC2)CC1 | 2% | -30% | 6% | 6% | 1.7% | -6% | -6% | -1%
CCOC(=O)N1CCC(n2c(SCC(=O)Nc3nccs3)nc3ccsc3c2=O)CC1 | ? | -2% | 17% | ? | -1.8% | ? | 29% | -1%
CCN(CC)C(=O)Cn1c(=O)n(CC2CCC(C(=O)NC)CC2)c(=O)c2sccc21 (configuration not stated) | / | -8% | / | / | 1.8% | ? | 7% | /
Cc1cccc(C(=O)Nc2cccc(OCC(=O)O)c2)c1 | 0% | -3% | -10% | 7%[46.1 µM] | / | -1%[46.1 µM] | / | 0%

Other results follow:
Structure | NS1 function inh | 2A StopGo | RE007 growth inh | MARV entry inh | Cruzain Triton | LASV entry inh | Cruzain inh noDet | SARS PLpro yeast
O=C(Nc1ccc2c(c1)CCC2)c1ccccc1Br | -8% | 39%[activator] | -3% | ? | / | ? | / | -4%
OC(c1ccccc1)(c1ccc(Cl)cc1)C1CN2CCC1CC2 (configuration not stated) | 3% | 0% | 9% | ? | / | 13µM* | / | 0%
CC(C)(C)c1ccc(COC(=O)CN2C(=O)NC3(CCCC3)C2=O)cc1 | / | -24% | -12% | 9% | / | ? | / | -10%
COC1=C(Nc2ccc(O)cc2)C(=O)c2ccccc2C1=O | -14% | -9% | -28% | ? | -7.1% | ? | -1% | -7%
CCc1nn(C)c(-c2n[nH]c(=S)n2N)c1Cl | 1% | 0% | -3% | -9% | 3.7% | 5% | 0% | 5%
O=C(CSc1nnc(CNC(=O)c2cccs2)o1)NCc1ccc(F)cc1 | -1% | 11% | 9% | 20% | 2.6% | -15% | 0% | 7%[6.58 µM]
COc1cccc(NC(=O)CN2C(=O)NC(C)(CCC(C)C)C2=O)c1 (configuration not stated) | / | -5% | -7% | 0%[46.1 µM] | / | -1% | / | 1%
CCOC(=O)C1CCN(C(=O)c2nn(-c3ccc(OC)cc3)c(=O)c3c2c2ccccc2n3C)CC1 | / | ? | / | 11%[46.1 µM] | -1.9% | -2%[46.1 µM] | -3% | /
C=C(C)C1CC=C(C(=O)O)CC1 (configuration not stated) | -39% | -7% | / | 8%&8%&8%&-12%&8%&8% | -1.9%&9.4% | 3% | -10%&-4% | /
CCOC(=O)C1=C(O)CSC1=Nc1ccc(Cl)cc1 | -4% | 20% | 6%[3.69 µM] | 0% | 2.0% | 2% | 6% | ?
COc1ccc([N+](=O)[O-])cc1NC(=S)Nc1ccccc1 | -2% | -24% | -4% | 5% | -5.5% | 9% | -3% | -3%

Rows were taken by chance, and some 4.5% of all compounds hit somewhere here.
